# MT1-MMP act inh: blocks activation of human MT1-MMP | HT1080 RFP-PRO-GFP cells, GFP/RFP ratio fluorescence, overnight; percent of plate control window, DMSO zero | GFP/RFP ratio change, % at 20 µM | 360,000 tested, 0.061% active | AID 651647;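 active = GFP/RFP ratio change of at least 30% with cell ATP level not reduced by more than half and red fluorescence within 50% of control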; also: strong numbers were not always called active
#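 Assay system: HT1080 RFP-PRO-GFP cells. Benchmarks: DMSO vehicle wells and RFP-L50D-GFP reporter cell wells. Times: overnight cell settling, then overnight compound exposure, 37 °C, 5% CO2. Compound: 20 µM single dose, 1% DMSO. Read-out basis: GFP/RFP fluorescence ratio.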
# UUG fidelity: modulators of start codon recognition fidelity in yeast; 350,000 tested, 0.13% active; activity score, % at 18.7 µM; S. cerevisiae UUG-firefly luciferase reporter, luminescence/redox ratio;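 active = replicate mean at a twofold rise or more, about +100% in these data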;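 also: firefly luciferase made from a UUG start codon reports start codon fidelity; reporter light over untreated wells divided by growth signal over untreated wells; some hits fall short of that in this replicate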
# CSC inhib: blocks cancer stem cells. cancer stem cell-like cells viability, luminescence. inhibition, % at 7.5 µM. 300,000 tested, 1.1% active. AID 2717;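 active = mean at 75% or more and at least half the replicates too; inconclusive = mean and replicates disagree; tested in HMLE shEcad cells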;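 also: 0% = median of negative and 100% = median of positive control wells; the first replicate is given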
# PABP FP inh: PABP-poly(A) binding inhibition | inhibition, % at 35 µM | P11940 | PABP-poly(A) RNA binding, fluorescence polarization | 290,000 tested, 1% active;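 active = 50% or more with normal probe brightness, or confirmed in later tests; inconclusive = above 50% with abnormal brightness, or retests that disagree; inactive = below 50% or failed in later tests; about a fifth of its hits are not listed in these tables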;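 also: calls also rest on retests at 20 µM and on dose response follow-up; controls were probe without protein and protein plus probe with vehicle; some compounds called inactive have numbers as strong as hits; many hits fall short of the cut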
# Target sequence (P11940 whole entry, looked up): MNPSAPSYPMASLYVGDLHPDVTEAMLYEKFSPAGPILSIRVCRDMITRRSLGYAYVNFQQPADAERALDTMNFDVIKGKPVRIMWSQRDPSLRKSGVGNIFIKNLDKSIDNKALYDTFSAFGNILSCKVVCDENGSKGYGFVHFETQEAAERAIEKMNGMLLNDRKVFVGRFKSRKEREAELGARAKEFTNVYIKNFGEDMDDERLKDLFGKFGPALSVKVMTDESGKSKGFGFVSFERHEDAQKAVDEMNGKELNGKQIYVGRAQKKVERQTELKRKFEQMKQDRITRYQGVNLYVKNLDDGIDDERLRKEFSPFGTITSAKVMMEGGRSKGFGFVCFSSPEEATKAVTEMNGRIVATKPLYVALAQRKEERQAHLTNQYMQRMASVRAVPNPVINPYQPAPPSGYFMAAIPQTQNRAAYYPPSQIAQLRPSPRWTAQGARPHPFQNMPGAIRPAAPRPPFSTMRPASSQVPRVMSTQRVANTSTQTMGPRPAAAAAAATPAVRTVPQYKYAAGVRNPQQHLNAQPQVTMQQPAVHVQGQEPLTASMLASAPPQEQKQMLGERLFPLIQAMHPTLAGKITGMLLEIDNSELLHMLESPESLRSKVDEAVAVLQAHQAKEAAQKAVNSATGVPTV
# Env fusion inh: blocks HIV Env-driven cell-cell fusion. inhibition, % at 12.3 µM. AID 651610. HeLa-JRFL Env/CEM21 cell fusion, luciferase. 360,000 tested, 1.1% active;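 active = mean replicate inhibition score of at least 50 and every replicate individually at or above 50; inconclusive = only one of the two criteria met; inactive = mean below 50 and not all replicates reaching 50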;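 also: 0% = plate neutral controls and 100% = maraviroc near 300 nM; one replicate is shown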
# eIF4H inh: inhibitors of RNA binding by human eIF4H; inhibition, % at 35 µM; 290,000 tested, 0.94% active; Q15056; eIF4H fluorescence polarization binding assay;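 active = 50% or more with normal probe brightness, or confirmed in later tests; inconclusive = above 50% with abnormal brightness, or retests that disagree; inactive = below 50% or failed in later tests; about a fifth of its hits are not listed in these tables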;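 also: calls also rest on retests at 20 µM and on dose response follow-up; 0% = protein and probe with vehicle and 100% = probe without protein; strong numbers were not always called active; many hits fall short of the cut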
# Rce1 inh: yeast Ras-converting enzyme inhibition; Q03530; yeast membranes, quenched prenylated peptide cleavage fluorescence; calls only; 290,000 tested, 0.27% active; AID 2563;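 active = fall in fluorescence gain of 50% or more versus controls, with final raw signal at or below 3038400; inconclusive = same 50% fall but final raw signal above 3038400; inactive = fall in fluorescence gain under 50%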;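 also: plate controls were neutral control wells for no effect and wells lacking membranes for full effect; tested at 10 µM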
# eIF4H inh retest: second read-out of eIF4H inh, no call of its own (marks repeat the call); inhibition, %; compound at 20 µM; confirmation average;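 mean of two retest wells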
# PABP FP inh retest: also measured in PABP FP inh; calls as there; inhibition, %; compound at 20 µM; confirmation repeats;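 mean of two retest wells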
# MT1-MMP act inh RFP: also measured in MT1-MMP act inh; calls as there; RFP signal change, %; measured here: RFP expression control read;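 0 = vehicle wells; hits needed this value within 50% of zero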
# * hit, by the source's call; i = inactive; ? = inconclusive; / = no result given; & = joins results of further samples. Only part of the results is shown, so the mix of outcomes need not match the whole.
SMILES,MT1-MMP act inh,MT1-MMP act inh RFP,UUG fidelity,CSC inhib,PABP FP inh,Env fusion inh,eIF4H inh,Rce1 inh,others
CCOC(=O)C1=C(c2ccccc2)NC(SCC)=C(C#N)C1c1cccnc1 (stereo unspecified),-4.2,-4.7,/,1.4,3.1,/,6.6,i,
COc1ccc(CCNC(=O)C2CCCN(S(=O)(=O)c3ccc(OC)cc3)C2)cc1 (stereo unspecified),-4.2,-9.4,-3.1,/,-4.3,0.5,-11.3,i,
O=C(c1cccc([N+](=O)[O-])c1)c1ccccn1,5.2,4.2,/,-8.5,13.9,-3.7,1.1,i,
C[C@H](CO)N1C[C@H](C)[C@H](CN(C)C(=O)OCc2ccccc2)OCc2cnnn2CCCC1=O,1.3,-0.9,-14.6&-10.8&-20.1,/,/,7.5,/,/,
COc1cccc(-c2cc(CNC(=O)[C@H]3O[C@@H](n4ccc(N)nc4=O)[C@H](O)[C@@H]3O)no2)c1,2.9,8.8,-3.9,/,/,24.1,/,/,
CC(=O)c1ccc(NC(=O)C(C)Sc2ccccn2)cc1 (stereo unspecified),-4.9,-1.1,-8.7,-5.5,-2.5,-18.7,-14.3,i,
O=C(Nc1ccc(Cl)cc1)C1CCN(C(=O)c2cccs2)CC1,-1.5,-4.2,-16.2,7.3,10.6,-0.6,-13.1,i,
COc1ccc(CCC(=O)Nc2ncc(C)s2)cc1OC,3.9,1.7,-8.6,-17.3,2.5,-18.8,-2.2,i,
O=C(COC(=O)c1ccccn1)NCc1ccc(Cl)cc1Cl,2.4,5.4,-4.3,/,/,-0.4,/,/,
COc1ccc(NC(=O)NC(=O)c2ccccc2)cc1,1.7,-0.5,-7.9,-0.8,1.7,-18.6,-8.1,i,
Cc1ccc(F)cc1CNC(=O)c1cc(COc2ccc3ncccc3c2)on1,-15.1,-33.3,/,-14.9,1.0,40.3,-5.2,i,
O=C(N/N=C/c1ccoc1)c1ccc([N+](=O)[O-])cc1,2.0,3.7,-38.6,-10.9,7.4,4.7,17.9,i,
O=C(c1cc2ncc(Br)cn2n1)N1CCCCC1,-1.1,-2.1,-9.7,-15.8,-14.9,-2.7,-7.6,i,
COc1ccc(C(=O)C(C)OC(=O)CN2C(=O)c3ccccc3C2=O)cc1 (stereo unspecified),-2.9,1.7,2.7,-10.9,/,-19.0,/,/,
CC(C)C[C@H]1CNC(=S)N1CC1CCN(CCCCc2ccccc2)CC1,3.4,2.0,-13.7,/,/,3.5,/,/,
COc1ccc(/C=C/C(=O)OCc2nc3ccccc3c(=O)[nH]2)c(OC)c1,2.1,2.3,-25.4,-10.6,-1.4,-49.7,-0.4,i,
CCN(CC)C(=O)CN1CCN(c2ncccn2)CC1,2.4,2.8,-14.1,-0.8,1.9,/,5.1,i,
O=c1cc(-c2ccccc2)oc2ccc(Br)cc12,-1.3,1.6,-14.4,8.8,/,-424.9,/,/,
CCOC(=O)C1=NN(C(=O)c2ccco2)C2(CC2)C1,-3.0,1.3,/,-10.7,-0.6,14.6,5.1,i,
O=C(OC1Cn2c(=O)ccc(=O)n2C1)c1ccccc1,-1.2,1.2,-5.9,-13.1,-15.5,-9.5,4.4,i,
Cc1c(C(=O)Nc2ccc(N3CCOCC3)cc2)oc2ccccc12,2.0,2.2,-17.6,3.9,1.9,-34.3,7.4,i,
CCOC(=O)c1oc2cc(O)cc(O)c2c(=O)c1OCc1ccccc1,1.0,-16.3,4.3,-7.0,/,/,/,i,
CCNC(=S)N/N=C1\C(=O)c2cccc3cccc1c23,9.2,5.0,-9.3,-4.9,19.4,/,22.6,i,
COc1ccc(NC(=O)/C(C#N)=C\c2ccc(N3CCOCC3)o2)cc1,-109.2,2.0,/,-3.5,?,-129.6,?,/,
COc1ccccc1NC(=O)c1cc(S(=O)(=O)NCc2ccccc2)ccc1F,1.6,2.7,/,37.5,21.5,-8.5,-9.8,i,
C=CCN1CCN(c2ccncc2S(=O)(=O)N2CCOCC2)CC1,11.0,-0.6,4.2,-3.0,-4.4,/,-11.0,i,
Cc1nn(-c2ccc(F)cc2)c2nc(N)c(C#N)c(-c3ccc(O)c(O)c3)c12,-14.4,-8.8,-7.2,30.6,2.5,13.4,-1.1,i,
CC(=O)Nc1sc(N/N=C\c2ccccc2Cl)nc1-c1cccs1,-2.2,-4.6,-19.0,-7.1,-5.7,-61.2,-1.3,i,
C[C@@H]1CN([C@H](C)CO)C(=O)c2c(c3ccccc3n2C)-c2ccccc2CO[C@H]1CN(C)C(=O)Nc1ccccc1,-0.5,3.0,30.0,/,/,-91.5,/,/,
Cc1ccc(NC(=O)c2cc(-c3ccc(C)o3)nc3ccccc23)cc1,-4.8,1.9,-17.2,/,10.5,-85.0,22.5,i,
CC(=C/C(=O)O)/C=C/c1ccc(Cl)o1,-3.8,-0.5,-4.5,/,3.0,/,94.4,i,eIF4H inh retest=-3.6;PABP FP inh retest=12.4
Cc1cc(C(=O)Nc2nnc(C(F)(F)F)s2)no1,1.8,-1.7,/,-1.8,16.8,/,9.2,i,
COc1cc(NC(=O)c2ccco2)c(OC)cc1NC(=O)CCC(=O)Nc1cccc(C)c1C,1.6,0.9,-17.8,/,7.2,-99.1,9.3,/,
COc1ccccc1N1CCN(c2ccc3c(c2)S(=O)(=O)c2cccc(C(=O)NCC4CC4)c2C3=O)CC1,3.0,-7.1,-7.3,/,/,34.8,/,/,
COc1ccc(N(C)S(=O)(=O)c2cccc(C(=O)NC3=NCCS3)c2)cc1,7.2,5.0,-2.8,-16.0,6.9,/,-7.0,i,
CCCCN(CC)CCCNC(=O)c1cn(-c2ccc(OC)cc2)c(=O)c2ccccc12,-1.9,4.7,0.6,-21.1,8.1,-4.5,3.9,i,
O=C(O)c1cn(-c2ccccc2)nc1-c1ccc(Cl)cc1,0.3,1.0,-19.0,9.2,/,1.1,/,i,
CCOC(=O)Cn1c(C)cc(=O)c2ccccc21,0.9,2.5,-13.6,-10.4,-0.8,-29.2,0.7,i,
O=C(COc1ccccc1[N+](=O)[O-])Nc1ccc(Br)cc1,-3.7,-2.8,-8.7,21.4,-7.4,-55.1,1.0,/,
C=CCCN([C@@H](C)C(=O)OC)S(=O)(=O)c1ccccc1Br,1.9,-4.0,-14.5,0.8,-1.9,6.8,9.7,i,

# Retrieved by compound from the entries so far:
SMILES,MT1-MMP act inh,MT1-MMP act inh RFP,UUG fidelity,CSC inhib,PABP FP inh,Env fusion inh,eIF4H inh,Rce1 inh,others
Cc1ccc(NC(=O)c2cc(-c3ccc(C)o3)nc3ccccc23)cc1,-4.8,1.9,-17.2,/,10.5,-85.0,22.5,i,
CCNC(=S)N/N=C1\C(=O)c2cccc3cccc1c23,9.2,5.0,-9.3,-4.9,19.4,/,22.6,i,

# More entries follow:
SMILES,MT1-MMP act inh,MT1-MMP act inh RFP,UUG fidelity,CSC inhib,PABP FP inh,Env fusion inh,eIF4H inh,Rce1 inh,others
CC(C)CC(c1nnnn1Cc1ccc(F)cc1)N1CCC(C(N)=O)CC1 (stereo unspecified),1.1,0.2,/,-0.3,-12.1,7.0,-18.8,i,
CCN(Cc1cc(=O)n2ccsc2n1)Cc1nc2ccccc2c(=O)[nH]1,-1.5,3.1,11.5,-3.4,2.1,-16.3,9.2,i,
Cc1cc(C)cc(C(=O)O/N=C(\N)c2ccc(Br)cc2)c1,7.9,3.7,-21.7,4.9,13.4,-19.0,3.8,i,
S=C1SCN(Cc2ccccn2)CN1Cc1ccco1,-8.3,1.4,-24.8,6.3,29.7,-26.5,21.5,i,
O=C(Cc1ccccc1)Nc1ccc(NC(=O)c2cccnc2)cc1,-3.3,-3.6,-7.8,-6.5,7.9,-10.6,1.4,i,
O=C(Nc1ccc(C(F)(F)F)cc1)c1ccc2ncsc2c1,7.0,3.5,-25.9,4.2,25.0,-36.9,5.4,i,
O=C(Cn1c(=O)n(CC2CCCO2)c(=O)c2ccccc21)N1CCN(c2ccccc2)CC1 (stereo unspecified),3.9,0.0,-16.5,-12.5,2.8,/,6.3,i,
Cc1cccc(N(CC(=O)NC(C)(C)C)C(=O)CNC(=O)c2cccs2)c1C,-1.8,0.4,-14.5,5.9,-3.6,-2.6,5.7,i,
COc1ccc(-c2nc3scc(-c4ccccc4)n3n2)cc1,7.2,2.7,-25.9,-13.4,58.7,-45.4,0.7,i,eIF4H inh retest=6.6;PABP FP inh retest=1.3
Cc1ccc(NS(=O)(=O)c2ccc3c(c2)NC(=O)CO3)cc1C,2.7,-3.1,7.5,/,9.6,3.1,-4.4,i,
COc1ccc(/C=C/C(=O)O)cc1S(=O)(=O)N1CCC(C)CC1,4.3,4.1,/,/,3.4,2.2,0.0,i,
O=[N+]([O-])c1cccc(CSc2nc3ccccc3[nH]2)c1,3.5,-3.0,/,12.1,8.5,-77.2,-3.0,i,
Cc1c(N(C)S(=O)(=O)c2ccc(Cl)c(C(=O)N3CCC(C(N)=O)CC3)c2)c(=O)n(-c2ccccc2)n1C,1.6,7.4,-5.9,-4.5,/,/,/,i,
O=C(COc1ccccc1Cl)NC(=O)NC1CCCC1,3.4,1.3,-2.5,17.2,-2.2,-38.9,-5.8,/,
S=c1[nH]nc(-c2cccs2)n1/N=C/c1cccs1,2.1,6.3,-19.3,-12.0,-1.0,12.5,-1.0,i,
CNC(=O)COC(=O)/C=C/c1ccc(F)cc1,-0.2,0.3,-7.4,-18.5,-2.5,-9.9,1.6,/,
CCCCC1CC1C(=O)Nc1ccc(OC)c(OC)c1 (stereo unspecified),5.1,0.1,3.4,9.6,-9.9,-8.6,-1.4,i,
C=CCN(c1cccc(C(F)(F)F)c1)S(=O)(=O)c1cccc(C(=O)OCC(=O)Nc2ccccc2)c1,3.1,1.1,/,-8.1,-6.1,5.4,-7.5,i,
O=C1CC(c2ccccc2)CN1C(=O)c1ccccc1 (stereo unspecified),1.3,1.7,-26.3,-8.1,-13.6,/,-7.1,i,
CCOC(=O)Nc1c2ccccc2nc2ccccc12,-0.6,-1.7,17.6,-1.3,8.5,4.2,-13.0,i,
Cc1cc(OC(=O)c2cc(Cl)nc3ccccc23)ccc1Cl,-3.9,2.6,-6.4,7.8,1.6,-301.8,-5.3,i,
CC(C)CCNC(=O)c1ccc(-n2cnc3cccnc32)cc1,-6.0,-6.2,-5.4,-8.4,-0.1,4.7,5.2,i,
CC(C)C(=O)N(Cc1ccccc1)c1ccccn1,2.6,2.3,-12.2,11.8,4.6,-35.9,2.1,i,
O=C(CCc1nnc2n(Cc3ccc(Cl)cc3)c(=O)c3ccccc3n12)NCCN1CCCC1,-10.0,-1.1,2.8,-13.5,-6.6,5.7,-7.4,i,
CC(=O)Cc1nsc(NC(=O)c2ccc(-c3ccc(Cl)cc3Cl)o2)n1,0.5,-4.5,-11.5,29.2,-0.6,-55.0,-4.2,i,
COc1ccc(NC(=O)CN(C)C(=O)CC2CCCC2)cc1,4.6,-2.3,/,/,/,6.6,/,i,

# 3 consecutive compounds already listed, quoted:
SMILES,MT1-MMP act inh,MT1-MMP act inh RFP,UUG fidelity,CSC inhib,PABP FP inh,Env fusion inh,eIF4H inh,Rce1 inh,others
Cc1cc(OC(=O)c2cc(Cl)nc3ccccc23)ccc1Cl,-3.9,2.6,-6.4,7.8,1.6,-301.8,-5.3,i,
CC(C)CCNC(=O)c1ccc(-n2cnc3cccnc32)cc1,-6.0,-6.2,-5.4,-8.4,-0.1,4.7,5.2,i,
CC(C)C(=O)N(Cc1ccccc1)c1ccccn1,2.6,2.3,-12.2,11.8,4.6,-35.9,2.1,i,

# Bioassay records as filed in PubChem BioAssay.
